TRPV1 PAM = human TRPV1 potentiation | TRPV1-expressing cells, Fluo-8 calcium influx, capsaicin EC20 potentiation; host cell line not named in the record; control for the full effect not named in the record | potentiation, % at 8.33 µM | 320,000 tested, 0.02% active; active means potentiation above 80%; inconclusive means 30% to 80%; inactive means below 30%; note: 0% is about no effect
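TRPV1-expressing cells were cultured overnight at 35.5C and loaded with Fluo-8 calcium dye for 40 to 90 min at room temperature. After a 10 s baseline, compound was added and calcium influx was read kinetically for 3 min (ex 480/em 520 nm).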
Menin-MLL FL inh = inhibitors of human menin-MLL interaction, wild-type MLL peptide; AID 1766; 290,000 tested, under 10 active; Fluorescence polarization, fluorescein-MLL peptide displacement from menin; FP activity change, % at 61.4 µM; inconclusive = falling polarisation curve, or a change in total fluorescence; inactive = total fluorescence flat and polarisation flat or rising; no compound was filed as active; the % refers to the polarisation; negative = inhibition;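 note: % of control where 0% means no effect; inhibitors lower the polarisation; unlabelled MLL peptide was the positive control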
PINK1 expr mod = PINK1 expression modulation | PINK1 immunofluorescence, high-content cytometry, 24 h | Potency, µM (titrated, usually from 76.6 µM), without a hit: top-dose activation (PINK1 increase), hits mostly activators | 410,000 tested, 0.2% active; active = well fitted activation curve with a large enough effect; inconclusive = small, poorly fitted or top-dose-only effect; inactive = flat fitted curve, though single readings scatter; cell line not stated here;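 note: potency is the fitted concentration of half-maximal effect; % of control where 0% means no effect; nearly all actives have a fitted effect of over 65% in size; a mitochondrial uncoupler was the plate control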
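Readout is PINK1 immunofluorescence, quantified alongside mitochondrial, cell and nuclear markers by laser-scanning microplate cytometry. Cells from a stable line were exposed to compound titrations (5 concentrations) for 24 hours, with CCCP controls.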
ClpP mod = qHTS Assay for Activators of ClpP. purified B. subtilis ClpP, FRET peptide cleavage, 20 min. Potency, µM (titrated, usually from 57.5 µM), without a hit: at the top dose activity change, negative = active. 340,000 tested, 1.9% active; active = well fitted falling curve with a large enough effect; inconclusive = small, poorly fitted or top-dose-only effect; inactive = no such curve, though single readings can be large or run the other way; note: potency is the fitted concentration of half-maximal effect; the source files actives as falling curves though it sought activators and does not explain the sign; nearly all actives have a fitted effect of over 65% in size; many hits overshoot -100%
Target sequence (P80244 whole entry, looked up): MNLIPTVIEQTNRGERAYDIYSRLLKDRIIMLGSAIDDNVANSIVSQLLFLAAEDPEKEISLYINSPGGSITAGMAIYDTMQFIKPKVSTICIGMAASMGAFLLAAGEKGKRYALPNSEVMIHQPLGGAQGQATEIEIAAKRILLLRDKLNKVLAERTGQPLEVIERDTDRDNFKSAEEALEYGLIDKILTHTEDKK
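FRET quenching reversal measured ClpP activation: 10 microg/mL B. subtilis ClpP at pH 8 with the FRET-FV decapeptide, read at 430 nm after 320 nm excitation. The 20-min minus 0-min signal was scaled between DMSO/no-enzyme wells and ADEP (5.8 microM final).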
TRPML1 ag = activates the human TRPML1 channel; Q9GZU1; TRPML1-expressing cells, Ca2+ dye fluorescence, FDSS; host cell line not named in the record; reference of the full effect not given here; activation, % (test concentration not listed); 410,000 tested, 0.12% active; AID 624414; in the data active = activation above about 50%; inconclusive = about 30% to 50%; inactive = below about 30%; note: 0% is about no effect; the text of the record puts the active cut at 80%
Target sequence (Q9GZU1 whole entry, looked up): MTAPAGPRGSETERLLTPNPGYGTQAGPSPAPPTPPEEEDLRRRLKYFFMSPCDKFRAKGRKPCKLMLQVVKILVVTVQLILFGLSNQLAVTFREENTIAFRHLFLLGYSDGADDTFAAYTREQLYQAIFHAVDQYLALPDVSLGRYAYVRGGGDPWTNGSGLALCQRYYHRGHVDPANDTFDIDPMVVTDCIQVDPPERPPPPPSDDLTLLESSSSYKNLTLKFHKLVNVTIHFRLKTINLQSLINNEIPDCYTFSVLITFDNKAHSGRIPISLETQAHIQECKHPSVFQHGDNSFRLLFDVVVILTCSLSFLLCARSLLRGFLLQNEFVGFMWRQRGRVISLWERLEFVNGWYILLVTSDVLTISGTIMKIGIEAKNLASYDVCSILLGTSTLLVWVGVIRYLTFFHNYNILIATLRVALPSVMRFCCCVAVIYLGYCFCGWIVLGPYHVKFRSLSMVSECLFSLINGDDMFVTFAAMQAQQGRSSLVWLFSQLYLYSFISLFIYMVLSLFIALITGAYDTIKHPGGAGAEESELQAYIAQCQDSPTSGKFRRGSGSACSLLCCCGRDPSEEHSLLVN
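TRPML1-DL cells, Tet-induced overnight (~16 h, 37 degrees C), loaded 45-90 min at room temperature with Ca8 no-wash calcium dye plus quencher. FDSS fluorescence: 10 s baseline, compound pin-transfer, 110 s agonist read, then EC80 54-4 (4uM final) and 110 s antagonist read.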
TRPML1 inh = inhibitors of human TRPML1 channel; Q9GZU1; TRPML1-inducible cells, Ca2+ dye fluorescence, FDSS; active compounds read low; inhibition of EC80 agonist-evoked calcium signal; activity change, negative = inhibition, % (test concentration not listed); 390,000 tested, 0.02% active; in the data active means activity change below about -50%; inconclusive means about -30% to -50%; inactive means above about -30%;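 note: stimulus is agonist 54-4 at its EC80 concentration; % is set by controls: 0 for no effect and ±100 for the full control effect; compound concentration not given in the record; the text of the record puts the active cut at -80%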
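Tet-induced TRPML1-DL cells loaded with Ca8 no-wash calcium dye were read kinetically on FDSS. Compound addition was followed by EC80 agonist 54-4 (4 uM final); inhibition was read over 110 s.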
Sfp PPTase inh = blocks B. subtilis Sfp PPTase activity; AID 1490; Biochemical Sfp PPTase activity, qHTS; Q9F4F7; Potency, µM, for the others: max response, negative = inhibition, most hits filed as inhibitors; 310,000 tested, 3.5% active; active = well fitted inhibition curve with a large enough effect; inconclusive = small, poorly fitted or top-dose-only effect, or another doubt; inactive = no such curve, though single readings can be large or run the other way;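 note: the enzyme is Sfp with the accession as filed and its product quenches rhodamine fluorescence; potency is the fitted concentration of half-maximal effect; 0% = enzyme reaction without inhibitor and -100% = no enzyme wells; top concentration of the series not given in the record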
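Compounds were incubated with enzyme (final 15 nM) for 15 min at room temperature before substrate addition started the reaction. Fluorescence at 525 nm excitation, 598 nm emission was recorded immediately and after 30 minutes.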
* marks the source's active call; other numbers are inactive results; u = inconclusive; x = not tested or not shown; & = joins results of further samples; [ ] = dose if it differs, or a comment.

SMILES	TRPV1 PAM	Menin-MLL FL inh	PINK1 expr mod	ClpP mod	TRPML1 ag	TRPML1 inh	Sfp PPTase inh
O=c1ccc(NS(=O)(=O)c2ccc(Cl)cc2)cn1Cc1ccc(Cl)c(Cl)c1	4	9.1	-2.6%	-5.0%	4.0	15	11%
OC(COCc1ccco1)CN1CCN(c2ccccc2)CC1 (stereo not drawn)	-2	7.2	1.3%	-3.0%	-1.7	6	-15%
CCn1c(Cc2ccccc2)nnc1SCC(=O)Nc1ccccc1F	3	-0.1	-0.5%	0.7%	2.7	-5	15%
CCc1ccccc1NC(=O)Cn1nc2c3cc(F)ccc3n(Cc3cccc(C)c3)cc-2c1=O	x	x	3.1%	-0.6%	1.8	6	x
COc1cccc(Nc2nc(C(N)Cc3ccc(C(F)(F)F)cc3)cs2)n1 (stereo not drawn)	x	x	-1.2%	-5.3%	1.1	x	x
c1ccc(SCc2nc3ccccc3s2)nc1	6	11	2.1%	-2.3%	0.2	42	u
O=C(NCc1ccccc1C(F)(F)F)C1CC(c2ccccc2[N+](=O)[O-])=NO1 (stereo not drawn)	4	4.4	1.4%	0.1%	0.4	20	8%
COc1ccc(N(CC(=O)NCc2cccs2)S(=O)(=O)c2ccc(C(C)=O)cc2)cc1	x	x	-1.6%	-3.0%	-0.6	20	x
COC(C[C@@H](O)[C@H](C)[C@@H](O)COCc1ccccc1)OC	u	0.3	-0.5%	-1.1%	-0.6	4	-2%
Cc1nn(CC(=O)Nc2nc3ccccc3s2)c(C)c1[N+](=O)[O-]	4	-0.2	x	0.7%	-0.5	33	-2%
S=c1[nH]nc(C2CC2c2ccc(Cl)cc2)n1-c1ccc(Cl)cc1 (stereo not drawn)	11	-0.6	-0.4%	-2.1%	5.5	-17	5%
C/C(=C\COc1ccc2ccc(=O)oc2c1)CC[C@@H](O)C(C)(C)O	1	x	0.9%	4.5%	-0.6	4	x
Cc1cccc(N2CCN(C(=O)C3CCCCC3)CC2)c1C	-10	0.0	x	-6.7%	-0.1	1	-18%
CN(CC(=O)Nc1ccc(Cl)cc1)CC(=O)Nc1ccc(F)c(F)c1F	7	6.2	2.2%	-1.3%	1.9	-7	7%
COc1ccc2oc(=N)c(C(=O)Nc3cccc(C)c3C)cc2c1	-1	-9.3	1.8%	-2.5%	0.4	-7	19%
COC(=O)CSc1ccc2nnc(-c3ccc(OC)c(OC)c3)n2n1	10	2.1	2.4%	-0.9%	-0.4	20	0%
CCOC(=O)C1CCN(CC(C)(C)NS(=O)(=O)c2ccccc2)CC1	-4	2.3	-0.1%	x	-0.7	-15	2%
Cc1ccc(Cn2nc(C)c(C(=O)N3CCN(S(=O)(=O)/C=C/c4ccccc4)CC3)c2C)cc1	-18	x	-0.6%	-0.8%	0.3	-20	x
COc1cc(OC)cc(C(=O)NC(=S)Nc2ccc3oc(=O)ccc3c2)c1	-7	x	4.7%	-0.7%	1.0	8	-3%
COc1ccccc1NC(=O)COC(=O)c1c(NC(C)=O)sc(C)c1C	x	x	4.4%	-8.5%	1.4	-11	x
O=C(NCCCCCNC(=O)c1ccccn1)c1ccccn1	5	0.9	2.0%	0.8%	0.8	65	9%
O=C(CNC(=O)c1ccc(F)cc1)NCc1ccccn1	-10	x	0.6%	-2.0%	-0.6	1	x
COc1cccc(NC(=O)c2oc3ccccc3c2NC(C)=O)c1	-3	2.4	5.9%[38.3 µM]	-5.1%	1.1	32	25%
COc1ccc(N(CC(=O)NCc2ccco2)S(C)(=O)=O)c(OC)c1	10	0.9	2.9%	x	0.0	3	u
CCNC(=O)C1(C)CCN(Cc2cccc(C(F)(F)F)c2)C1 (stereo not drawn)	x	x	0.0%	0.0%	-0.5	8	x
CCOC(=O)C1=C[C@@H](C(C)C)N(S(=O)(=O)c2ccc(C)cc2)[C@H]1c1ccccc1F	x	x	2.6%	-0.1%	2.7	14	x
Cc1ccc(S(=O)(=O)NC(CC(C)C)C(=O)Nc2nccs2)cc1 (stereo not drawn)	0	-0.4	-0.1%	-1.6%	-1.0	-13	9%
CCN(CC)CCCN=C1N[C@@H](c2ccccc2)C(C(=O)OC)=C(C)N1CC	2&-11	-30&-13	-0.4%	-5.6%	-0.3	7	-5%&3%
CCN1CCN(C(=O)CN2C(=O)c3ccccc3S2(=O)=O)CC1	-7	x	-0.2%	-2.7%	0.4	2	x
COc1ccnc(Oc2ccc(F)cc2)c1C(=O)N/C=N/OCc1ccccc1	-1	1.0	4.1%	x	2.8	7	-1%
CSc1cccc(N2CC(C(=O)N(Cc3nnc(-c4ccccc4Cl)o3)C3CC3)CC2=O)c1 (stereo not drawn)	1	x	2.6%	u	-0.3	6	-1%
CCOc1ccc2c(c1)c(=O)c(S(=O)(=O)c1ccc(C)cc1)cn2CC(=O)Nc1ccc(C)cc1	x	x	1.2%	-21%	2.3	-2	x
CCc1ccccc1NC(=O)Cn1c(=O)n(-c2ccc(C)c(C)c2)c(=O)c2oc3ccccc3c21	x	x	4.1%	-1.9%	3.5	12	x
CCOC(=O)CSC1=Nc2ccccc2C2=NC(CCC(=O)NCc3ccc(F)cc3)C(=O)N12 (stereo not drawn)	x	x	-0.5%	4.5%	-0.7	-11	x
Cc1cccnc1Nc1nc(-c2ccccn2)cs1	-9	-0.9	-0.8%	-0.6%	-0.4	23	6%
COc1ccccc1CN1CC(C(=O)N(C)Cc2ccc(C)o2)CCC1=O (stereo not drawn)	1	x	-1.1%	0.4%	-0.8	1	45µM*
CCOc1cccc(C(=O)NC2=NCCS2)c1	-12	5.0	0.6%	0.7%	-0.6	-17	7%
CCC(=O)Nc1ccc(C(=O)NNC(=O)c2ccc(Cl)cc2)cc1	0	-0.7	6.9%	-4.3%	0.1	10	1%
Nc1ncnc2nc(SCCc3ccccc3)[nH]c12	-14	-1.4	0.0%[38.3 µM]	0.4%	-0.6	7	1%
C=CCNS(=O)(=O)c1cccc2cc(C(=O)O)c(O)cc12	-13	-1.2	7.8%	-2.3%	0.9	-2	9%
CCN(C(=O)CSc1cc(C)c2ccc(OC)cc2n1)C1CCS(=O)(=O)C1 (stereo not drawn)	13	-6.3	-0.3%	u	0.9	-17	5%
CC(C)=CCSc1nnc([C@@H](NC(=O)OC(C)(C)C)C(C)C)o1	-16	-1.3	4.3%	0.5%	1.7	41	13%
FC(F)(F)c1ccccc1/C=N/Nc1ccccn1	-3	2.8	0.5%	-3.8%	2.4	0	79µM*
S=C(NCCCCNC(=S)NCc1ccccc1)NCc1ccccc1	u	1.9	2.1%	x	-0.4	44	-12%
CC(C)(C)C(=O)Nc1ccc2nc(SCCOc3ccccc3Cl)sc2c1	x	x	1.0%	-6.6%	3.0	-4	x

Molecules listed so far containing a tert-butyl group (2):
SMILES	TRPV1 PAM	Menin-MLL FL inh	PINK1 expr mod	ClpP mod	TRPML1 ag	TRPML1 inh	Sfp PPTase inh
CC(C)=CCSc1nnc([C@@H](NC(=O)OC(C)(C)C)C(C)C)o1	-16	-1.3	4.3%	0.5%	1.7	41	13%
CC(C)(C)C(=O)Nc1ccc2nc(SCCOc3ccccc3Cl)sc2c1	x	x	1.0%	-6.6%	3.0	-4	x

Remaining list, next part.
SMILES	TRPV1 PAM	Menin-MLL FL inh	PINK1 expr mod	ClpP mod	TRPML1 ag	TRPML1 inh	Sfp PPTase inh
CCN(C(=O)COC(=O)c1[nH]c(=O)[nH]c(=O)c1N)c1ccccc1	6	0.0	-0.5%	-2.9%	0.2	0	24%
COc1ccc(NC(=O)C[C@H]2C(=O)N(C3CCCCC3)C[C@@H]2c2ccccc2)cc1	x	x	0.2%	0.5%	-0.7	-24	x
COc1ccc2[nH]cc(CCNc3ncnc4ccc(-c5cccnc5)cc34)c2c1	x	-9.6	1.5%	x	x	x	17%
CCOC(=O)c1cccc(NC(=O)CC2C(=O)N(c3ccccc3)C(=O)N2Cc2ccco2)c1 (stereo not drawn)	x	x	0.4%	-1.5%	2.2	-17	x
O=C(c1ccco1)c1n[nH]nc1-c1ccccc1	-11	8.8	-0.9%	-1.0%	-0.3	26	-1%
Cc1cn2c(=O)c(S(=O)(=O)Nc3ccc(OC(F)(F)F)cc3)c(C)nc2s1	x	x	2.2%	-1.0%	2.0	-12	x
Cc1ccc(C(=O)NCC2CCCN2S(=O)(=O)c2ccc(C)cc2)cc1 (stereo not drawn)	-8	x	0.2%	x	2.9	2	x
NNC(=O)c1ccc(Cn2cc(Br)cn2)cc1	-6	-0.7	1.3%	-1.0%	0.6	27	26%
O=S(=O)(c1ccc2c(c1)OCO2)N1CCN(c2nnnn2-c2ccccc2)CC1	7	-1.4	-8.1%[38.3 µM]	-0.2%	1.2	7	-1%
O=c1nc2ccccc2c2n1CC(CN1CCN(C(c3ccccc3)c3ccccc3)CC1)N2 (stereo not drawn)	-3	-3.3	-1.3%	x	-0.5	-4	6%
O=C(Nc1ccccn1)c1cc2ccccc2cc1O	-4	1.0	13%	x	10	17	-8%
CCOC(=O)N1CCC(N2C(=O)c3ccccc3C2Nc2cc(C(=O)OC)cc(C(=O)OC)c2)CC1 (stereo not drawn)	6	7.6	2.7%	3.5%	0.4	9	-8%
O=C(COc1ccc(Cl)cc1Cl)c1ccc[nH]1	-3	0.8	-1.0%	0.2%	x	x	1%
CC(=O)Nc1ccc(C(=O)N(C)C(C(=O)Nc2ccccc2)c2ccccn2)cc1 (stereo not drawn)	5	-0.9	2.1%	1.9%	0.6	11	3%
CN(C(=O)c1cccc(NC(=O)Cc2ccc(NC(=O)C3CCCN(C(=O)C4CCCC4)C3)cc2)c1)C1CC1 (stereo not drawn)	x	x	1.1%	0.7%	-0.4	-4	x
Cc1cc2nn(-c3ccc(Cl)cc3)nc2cc1N	-8	-5.9	1.5%	5.0%	-0.4	14	-19%
Cc1ccccc1NC(=O)c1ccc(CNS(=O)(=O)c2ccc3c(c2)C(C)(C)C(=O)N3C)cc1	x	x	2.6%	0.5%	-0.3	-12	x
Cc1occc1C(=O)N1CCN(Cc2ccccc2)CC1	20	5.3	-0.4%[38.3 µM]	-1.5%	0.3	7	9%
CC(C1CCN(Cc2cn(C)nc2-c2cccc(Cl)c2)CC1)N1CCOCC1 (stereo not drawn)	5	-0.5	-0.7%	1.2%	-0.1	4	3%
Cc1c(Cl)cccc1NC(=O)Nc1c(C)n(C)n(-c2ccccc2)c1=O	1	x	0.7%	-0.8%	-0.4	-1	12%
COC(=O)c1ccc(NC(=O)Cn2c(-c3nonc3N)nc3ccccc32)cc1	2	6.9	-0.5%&1.2%	-0.2%&1.0%	-0.4&-0.4	32&-3	-1%
